Screening results as filed in PubChem.
HIV Env fusion: inhibitors of HIV-1 Env-driven cell-cell fusion, primary screen, HeLa-JRFL effector, CEM21 target cells, luciferase; actives 1.1% (n = 360,000); AID 651610, 2012; inhibition, % at 12.3 µM;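 active means mean replicate inhibition score of at least 50 and every replicate individually at or above 50; inconclusive means only one of the two criteria met; inactive means mean below 50 and not all replicates reaching 50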;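 further: 0% = plate neutral controls and 100% = maraviroc near 300 nM; one replicate is shown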
eIF4H inh: human eIF4H binding inhibitors, primary screen, translation initiation inhibitor project, biochemical, uHTS, fluorescence polarization; eIF4H fluorescence polarization binding assay; Eukaryotic translation initiation factor 4H (Homo sapiens), Q15056; actives 0.94% (n = 290,000); inhibition, % at 35 µM;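 active means 50% or more with normal probe brightness, or confirmed in later tests; inconclusive means above 50% with abnormal brightness, or retests that disagree; inactive means below 50% or failed in later tests; about a fifth of its hits are not listed in these tables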;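 further: calls also rest on retests at 20 µM and on dose response follow-up; 0% = protein and probe with vehicle and 100% = probe without protein; strong numbers were not always called active; many hits fall short of the cut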
UUG fidelity: modulators of yeast start codon fidelity, primary screen, whole organism, S. cerevisiae, single point, plate reader; AID 602363, 2012; activity score, % at 18.7 µM; actives 0.13% (n = 350,000); S. cerevisiae UUG-firefly luciferase reporter, luminescence/redox ratio;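 active means replicate mean at a twofold rise or more, about +100% in these data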;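 further: firefly luciferase made from a UUG start codon reports start codon fidelity; reporter light over untreated wells divided by growth signal over untreated wells; some hits fall short of that in this replicate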
MT1-MMP act inh: blockers of MT1-MMP proenzyme processing, primary screen, HT1080 RFP-PRO-GFP cells, GFP/RFP fluorescence | actives 0.061% (n = 360,000) | Matrix metalloproteinase-14 (Homo sapiens), P50281 | GFP/RFP ratio change, % at 20 µM | GFP/RFP ratio fluorescence, overnight; percent of plate control window, DMSO zero;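 active means GFP/RFP ratio change of at least 30% with cell ATP level not reduced by more than half and red fluorescence within 50% of control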; further: strong numbers were not always called active
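Test system: HT1080 RFP-PRO-GFP cells; Benchmarks: DMSO and RFP-L50D-GFP cell wells; Timing: cells overnight before dosing, compound overnight, 37 °C, 5% CO2; Compound: one 20 µM compound dose with 1% DMSO; Read-out: GFP/RFP fluorescence ratio.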
PABP polyA inh: PABP poly(A) RNA binding inhibitors, primary screen, biochemical, fluorescence polarization, uHTS | inhibition, % at 35 µM | actives 1% (n = 290,000) | AID 2014, 2009;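 active means 50% or more with normal probe brightness, or confirmed in later tests; inconclusive means above 50% with abnormal brightness, or retests that disagree; inactive means below 50% or failed in later tests; about a fifth of its hits are not listed in these tables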;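 further: calls also rest on retests at 20 µM and on dose response follow-up; controls were probe without protein and protein plus probe with vehicle; some compounds called inactive have numbers as strong as hits; many hits fall short of the cut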
Rce1 inh: yeast Rce1p protease inhibitors, primary screen, biochemical, fluorescence, cell-free homogeneous; yeast membranes, quenched prenylated peptide cleavage fluorescence; calls only; actives 0.27% (n = 290,000);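 active means fall in fluorescence gain of 50% or more versus controls, with final raw signal at or below 3038400; inconclusive means same 50% fall but final raw signal above 3038400; inactive means fall in fluorescence gain under 50%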;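 further: plate controls were neutral control wells for no effect and wells lacking membranes for full effect; tested at 10 µM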
Target sequence (Q03530 whole entry, looked up): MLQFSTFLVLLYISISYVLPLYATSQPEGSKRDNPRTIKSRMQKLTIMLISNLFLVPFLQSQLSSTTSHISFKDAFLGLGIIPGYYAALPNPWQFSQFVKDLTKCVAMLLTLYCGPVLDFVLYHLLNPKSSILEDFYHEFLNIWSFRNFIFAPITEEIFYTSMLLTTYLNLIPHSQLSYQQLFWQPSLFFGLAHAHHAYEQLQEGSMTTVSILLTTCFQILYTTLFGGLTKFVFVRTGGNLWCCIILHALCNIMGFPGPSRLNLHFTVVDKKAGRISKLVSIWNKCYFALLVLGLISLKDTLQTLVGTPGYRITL
CSC inhib: cancer stem cell viability inhibitors, primary screen, luminescence; cancer stem cell-like cells viability; inhibition, % at 7.5 µM; actives 1.1% (n = 300,000); AID 2717, 2010;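 active means mean at 75% or more and at least half the replicates too; inconclusive means mean and replicates disagree; tested in HMLE shEcad cells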;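 further: 0% = median of negative and 100% = median of positive control wells; the first replicate is given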
MT1-MMP act inh RFP: also measured in MT1-MMP act inh; calls as there; RFP signal change, %; measured here: RFP expression control read;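 0 = vehicle wells; hits needed this value within 50% of zero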
Numbers without * were called inactive; i = inactive; ? = inconclusive; · = no result given; & = joins results of further samples; [ ] = another dose, or the depositor's remark. Not a hit list, and some 3% of all compounds hit somewhere here.

Value order – HIV Env fusion | eIF4H inh | UUG fidelity | MT1-MMP act inh | MT1-MMP act inh RFP | PABP polyA inh | Rce1 inh | CSC inhib
[1] CC1(C)CC(=O)/C(=N/Nc2ccc(Cl)cc2)CO1
  -88 | 9 | -12 | 0 | -5 | 7 | i | 13
[2] CS(=O)(=O)Nc1ccc(C2=NN(C(=O)c3ccccc3)C(c3cccs3)C2)cc1 (stereo not drawn)
  15 | -5 | -2 | -2 | -4 | 3 | i | -8
[3] O=C(/C=C/c1cccc2ccccc12)c1ccncc1
  15 | -5 | -6 | -27 | -14 | 1 | i | 52
[4] CCOc1ccc(S(=O)(=O)/N=C(/c2ccccc2)N(C)C)cc1
  -3 | -8 | · | 0 | -1 | 4 | i | ·
[5] COCCNC(=O)c1ccc2c(c1)ncn2-c1cccc(C)c1
  -28 | -8 | -23 | 1 | 0 | -6 | i | 0
[6] CC(C)(C)NC(=O)C1(C)CCC(=O)N1CC(F)(F)F (stereo not drawn)
  2 | · | -15 | -6 | -3 | · | · | ·
[7] CCOc1ccc(NC(=O)CN2CCN(CC(=O)Nc3ccccc3OC)CC2)cc1
  22 | -12 | -6 | -2 | -3 | 4 | i | -12
[8] O=C(CCCl)N1CCN(c2nc(-c3ccccc3)cs2)CC1
  -6 | -3 | -17 | 3 | -8 | -12 | i | 7
[9] COc1cc(C2c3c(-c4ccccc4O)n[nH]c3C(=O)N2Cc2ccco2)cc(OC)c1OC (stereo not drawn)
  -25 | -3 | -20 | -2 | -5 | -1 | i | -2
[10] CCCn1c(N)c(C(=O)CSc2nnc(-c3cccs3)n2C2CC2)c(=O)[nH]c1=O
  -30 | · | -18 | 2 | 0 | · | · | ·
[11] C#CCOCCOCCOCCNc1nc(N2CCN(C(=O)[C@H](CCC(=O)O)n3cc(C(N)Cc4ccc(O)cc4)nn3)CC2)nc(N2CCN(C(=O)[C@H](Cc3ccc(O)cc3)n3cc(C(N)[C@H](C)CC)nn3)CC2)n1 (stereo partly drawn)
  · | -3 | · | · | · | 10 | i | ·
[12] O=C(Nc1ccccc1)C1=C[C@H](C2CC2)C[C@H](OCCCCO)O1
  -32[16.7 µM] | -1 | 11&-7 | -1 | 1 | 1 | i | 9
[13] Cc1c(CCC(=O)NCC(=O)NCC(=O)O)c(=O)oc2cc3oc4c(c3cc12)CCCC4
  0 | -8 | 9 | 6 | 4 | 10 | i | 0
[14] N#CC1=C(SCC(=O)Nc2cccc3cccnc23)NC(=O)C(C#N)C12CCCCC2 (stereo not drawn)
  · | 8 | -18 | 2 | -2 | 17 | i | 12
[15] O=C(Nc1ncn[nH]1)c1ccc(Cl)c(S(=O)(=O)N2CCCCCC2)c1
  -15 | -5 | -16 | 0 | 0 | 2 | i | -11
[16] CC(=O)Nc1nnc(SCC(=O)Nc2nc(C)cs2)s1
  5 | 1 | 8 | 0 | -2 | 6 | i | -17
[17] CCOC(=O)C1CCCN(C(=O)c2cc3ccc(OC)cc3[nH]2)C1 (stereo not drawn)
  -2 | 1 | -4 | 6 | -1 | 0 | i | 0
[18] COc1ccc(NC(=O)c2nc[nH]c2C(=O)NCC(=O)OC(C)(C)C)cc1
  -43 | 0 | 9 | 8 | -4 | 6 | i | -10
[19] CCOc1ccc(NC(=O)CN(c2cccc(C(F)(F)F)c2)S(C)(=O)=O)cc1
  -62 | 1 | -11 | 0 | -3 | 3 | i | 2
[20] CCOc1ccc(S(=O)(=O)Nc2ccccc2C(=O)N/N=C/c2c(OC)ccc3ccccc23)cc1
  · | -3 | · | 0 | -1 | 0 | i | 11

One compound at a time, as listed above. Values in the order: HIV Env fusion	eIF4H inh	UUG fidelity	MT1-MMP act inh	MT1-MMP act inh RFP	PABP polyA inh	Rce1 inh	CSC inhib
CCOc1ccc(NC(=O)CN2CCN(CC(=O)Nc3ccccc3OC)CC2)cc1 is listed with 22	-12	-6	-2	-3	4	i	-12
CS(=O)(=O)Nc1ccc(C2=NN(C(=O)c3ccccc3)C(c3cccs3)C2)cc1 (stereo not drawn) is listed with 15	-5	-2	-2	-4	3	i	-8

Remaining list, next part:
Value order – HIV Env fusion | eIF4H inh | UUG fidelity | MT1-MMP act inh | MT1-MMP act inh RFP | PABP polyA inh | Rce1 inh | CSC inhib
[21] CCOC(=O)C1=CCC(c2cccc(Cl)c2)N(S(=O)(=O)c2ccc(C)cc2)C1 (stereo not drawn)
  -16 | · | -14 | -1 | -6 | · | · | ·
[22] CC(=O)c1ccc(OCc2cc(C(=O)N3CCN(C4CCCC4)C(=O)C3)no2)cc1
  -8 | -7 | -10 | 1 | -2 | -7 | i | -5
[23] CCCC(C(=O)NNC(=O)c1ccncc1)c1ccccc1 (stereo not drawn)
  15 | · | -22 | 1 | 1 | · | · | -13
[24] COc1ccc(-c2ccc(SCc3cccnc3)nn2)cc1OC
  -4 | -8 | · | 4 | -7 | 24 | i | -1
[25] NC(=O)CC(NC(=O)c1ccccc1)c1ccc(NC2CCCCCCC2)c([N+](=O)[O-])c1 (stereo not drawn)
  ? | 6 | -19 | 10 | -19 | -7 | i | 27
[26] CCN(c1ccccc1)S(=O)(=O)c1ccc(OC)c(NC(=O)Cc2ccccc2OC)c1
  · | · | -17 | -1 | -3 | · | · | 13
[27] COc1ccc(Cc2nnc(SCC(=O)c3ccc4c(c3)NC(=O)CO4)o2)cc1
  -12 | · | · | -5 | -4 | · | i | 8
[28] Cc1cccc(C2=NN(c3ccc(Br)cc3)[C@@H](C(=O)N3CCOC3=O)[C@@H]2c2ccc([N+](=O)[O-])cc2)c1
  -93 | · | 4 | -1 | -1 | · | · | ·
[29] COc1ccc(OCC(=O)NC(=O)c2ccccc2OC)c([N+](=O)[O-])c1
  -63 | · | · | 4 | 3 | · | i | 0
[30] O=C(NCCN1CCOCC1)c1ccc(NS(=O)(=O)c2cccc([N+](=O)[O-])c2)cc1
  -4 | · | · | 2 | 1 | · | i | 0
[31] O=C1CC(/C=C/c2ccncc2)=Nc2ccccc2N1
  3 | -5 | -8 | -6 | -4 | -12 | i | -5
[32] CCN(CC)C(=O)C1=C(C)N(CCC2=CCCCC2)C(=O)C(CC(=O)NC(c2ccccc2)c2ccccc2)C1 (stereo not drawn)
  -53 | · | 12 | -5 | -8 | · | · | ·
[33] O=C(Nc1ccc2cn[nH]c2c1)c1ccc(Cl)c(S(=O)(=O)N2CCOCC2)c1
  -4 | -6 | · | -2 | 0 | 18 | i | ·
[34] COc1ccc(C(c2c(C)[nH]n(-c3ccccc3)c2=O)c2c(C)[nH]n(-c3ccccc3)c2=O)cc1OC
  · | 2 | -6 | 22 | 4 | -2 | i | -3
[35] O=C(CC(NC(=O)OCc1ccccc1)C(=O)O)OCc1ccccc1 (stereo not drawn)
  6 | -3 | 1 | -3 | 3 | -7 | i | -6
[36] COc1ccc(-c2nnn(CC(=O)N(CCCO)C(C(=O)NC3CCCC3)c3ccncc3)n2)cc1 (stereo not drawn)
  -7 | 1 | · | 17 | -10 | -2 | i | -6
[37] COc1ccc(C(=O)n2nc(-c3ccc(Cl)cc3)nc2N)cc1OC
  · | -2 | -18 | 1 | -1 | -1 | i | -1
[38] CN(/N=C/Cc1nnnn1-c1ccc(Cl)cc1)c1ccccc1
  9 | -6 | · | 1 | 0 | -1 | i | 6
[39] COc1c(C(=O)Nc2ccc(CN3CCOCC3)cc2)cc2ccccc2c1Br
  · | 1 | -11 | 6 | -6 | 6 | i | -5
[40] O=c1cc(CSCc2ccc(Cl)cc2)[nH]c(=O)[nH]1
  9 | 0 | · | 1 | 2 | -7 | i | -1
[41] Cc1cccc(C2CC(c3ccc(Br)cc3)Nc3nc(N)nn32)c1 (stereo not drawn)
  1 | -6 | 0 | -4 | 2 | -7 | i | -5
[42] CCCn1nc(C(=O)N2CC(=O)Nc3ccccc32)c2ccccc2c1=O
  -165 | · | 11 | -7 | -17 | · | i | 35
[43] COc1ccccc1NC(=O)CSc1ncn[nH]1
  · | -16 | -15 | 5 | 5 | -4 | i | -31
[44] Cc1ccc(OCCCCn2ccnc2)c([N+](=O)[O-])c1
  0 | -4 | · | -1 | -2 | 0 | i | 12
[45] CCOC(=O)[C@@H]1CCNC[C@@H]1c1ccccc1
  · | -12 | -10 | -11 | -3 | 6 | i | -1
[46] C#CCOc1ccc(Br)cc1/C=N/O
  · | -3 | · | -4 | 0 | 4 | i | -11
[47] Cc1ccc(S(=O)(=O)N2CCC[C@H]2C(=O)OC(C)C(=O)Nc2ncc(Cl)cc2Cl)cc1 (stereo partly drawn)
  -37 | -2 | -11 | 2 | 4 | -7 | i | -22
[48] COc1cccc(N2CC(O)=C(c3nc4ccccc4s3)C2=N)c1
  -58 | 4 | -14 | 10 | -2 | 6 | i | 51
[49] CCOC(=O)c1sc(N2C(=O)C(O)=C(C(=O)c3ccco3)C2c2cccc(Cl)c2)nc1C (stereo not drawn)
  22 | 9 | -13 | -1 | 3 | -6 | i | -6
[50] COc1cccc(OC)c1C(=O)Nc1cc(C)nn1-c1nc2ccccc2[nH]1
  29 | 8 | · | -12 | -10 | -14 | i | 50
[51] CCOc1cc(/C=C(/C#N)c2ccc(Cl)cc2)cc(Cl)c1OCC(=O)O
  58* | -3 | · | 2 | -3 | 19 | · | ·
[52] Cn1c(=O)c2c(nc(CN3CCN(C(c4ccccc4)c4ccccc4)CC3)n2CCCO)n(C)c1=O
  4 | -6 | · | -1 | -1 | 2 | i | -14
[53] COc1ccc(CCNC(=O)c2ccc(CN3CCC(Cc4ccccc4)CC3)cc2)cc1OC
  22 | -2 | · | 8 | -9 | 5 | i | 25
[54] CC(C)NS(=O)(=O)c1ccc(NC(=O)Cc2cccs2)cc1
  10 | -2 | · | 2 | 1 | -9 | i | 13
[55] Cc1ccc(-c2ccc(/C=C3/NC(=O)NC3=O)o2)cc1[N+](=O)[O-]
  -125 | ? | -10 | 3 | -7 | -7 | i | ·
[56] O=C(Nc1cccc(Cl)c1)Nc1cccc(C(=O)O)c1
  40 | -2 | -50 | 1 | -1 | 12 | i | 9
[57] N#C/C(=C/c1ccc(N2CCOCC2)o1)C(=O)NC1CCCCC1
  -24 | ? | · | -95 | 6 | ? | i | -7
[58] COc1ccc(NC(=O)c2cc(-c3cc(F)ccc3OCC3CCCO3)n[nH]2)c(C)c1 (stereo not drawn)
  8 | · | -9 | -7 | -7 | · | · | ·
[59] NC(=O)Nc1n[nH]c(-c2ccccc2)n1
  -77 | -4 | -11 | 1 | 3 | -1 | i | -2
[60] CCN(CC)CCN(CC(=O)N(C1CCCCC1)C1CCCCC1)C(=O)c1cccnc1
  -1 | -2 | · | -2 | 3 | 11 | i | -6
[61] CSCC[C@H](NC(=O)c1cccs1)c1nnc2ccccn12
  1 | -10 | 7 | 2 | 4 | 1 | i | 10
[62] O=C(c1ccc(S(=O)(=O)c2ccccc2Cl)c([N+](=O)[O-])c1)N1CCN(Cc2ccccc2)CC1
  · | -4 | · | -13 | -31 | -3 | i | 12
[63] CCCC(C(=O)NC(C)(C)C)N(CCN1CCOCC1)C(=O)CNS(=O)(=O)c1ccccc1 (stereo not drawn)
  2 | -4 | -16 | -2 | 0 | 3 | i | -11
[64] CN(c1ccccc1C(=O)Nc1cccc(Br)c1)S(=O)(=O)c1ccccc1
  35 | 9 | -17 | 0 | -3 | 7 | i | -7
[65] Cc1cc(C)c(C#N)c(Sc2ccc(N)cc2)n1
  -2 | -2 | · | -1 | 4 | -6 | i | -18
